# YopH inh: YopH (Yersinia) phosphatase inhibition | inhibition, %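 (about 10 µM by stock and volumes)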 | fluorescence Ex485/Em525 | 140,000 compounds, 0.16% hits | AID 898;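 active means inhibition of 50% or more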;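 further: controls were vehicle for no effect and minimum signal wells for full effect; inactives centre near -20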
# Mtb H37Rv: M. tuberculosis H37Rv growth inhibitors, H37Rv strain (AID 1626); M. tuberculosis H37Rv growth inhibition; higher % means a stronger effect; one-dose inhibition, % at 10 µM; IC50 in µM for titrated hits; 220,000 compounds, 0.95% hits;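 active means confirmed in a dose series; inconclusive means inhibition above 80% but not taken into the dose series; inactive means below 80% or under 30% at every dose of the series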;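 further: bacteria incubated seven days before Alamar blue readout; 0% = bacteria only wells and 100% = bacteria with antibiotic wells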
# Arbovirus anti: blocks arbovirus infection | inhibition, % at 10 µM | AID 1251 | 200,000 compounds, 0.37% hits | arbovirus infection cell-based antiviral screen;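 active means inhibition from about 30%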;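 further: bluetongue infection of BSR cells; cell survival read as ATP light after 72 h; 0% = infected wells without compound and 100% = uninfected wells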
# RecA splice inh: blocks M. tuberculosis RecA intein splicing. inhibition, %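 (about 9 µM by stock and volumes)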. P9WHJ3. 290,000 compounds, 0.75% hits. cell-free RecA intein splicing, fluorescence; in the data active means inhibition above about 30%; inconclusive means no clear call, values can overlap the other calls;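 further: 0% = vehicle wells and 100% = reference inhibitor control wells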
# Target sequence (P9WHJ3 whole entry, looked up, canonical isoform): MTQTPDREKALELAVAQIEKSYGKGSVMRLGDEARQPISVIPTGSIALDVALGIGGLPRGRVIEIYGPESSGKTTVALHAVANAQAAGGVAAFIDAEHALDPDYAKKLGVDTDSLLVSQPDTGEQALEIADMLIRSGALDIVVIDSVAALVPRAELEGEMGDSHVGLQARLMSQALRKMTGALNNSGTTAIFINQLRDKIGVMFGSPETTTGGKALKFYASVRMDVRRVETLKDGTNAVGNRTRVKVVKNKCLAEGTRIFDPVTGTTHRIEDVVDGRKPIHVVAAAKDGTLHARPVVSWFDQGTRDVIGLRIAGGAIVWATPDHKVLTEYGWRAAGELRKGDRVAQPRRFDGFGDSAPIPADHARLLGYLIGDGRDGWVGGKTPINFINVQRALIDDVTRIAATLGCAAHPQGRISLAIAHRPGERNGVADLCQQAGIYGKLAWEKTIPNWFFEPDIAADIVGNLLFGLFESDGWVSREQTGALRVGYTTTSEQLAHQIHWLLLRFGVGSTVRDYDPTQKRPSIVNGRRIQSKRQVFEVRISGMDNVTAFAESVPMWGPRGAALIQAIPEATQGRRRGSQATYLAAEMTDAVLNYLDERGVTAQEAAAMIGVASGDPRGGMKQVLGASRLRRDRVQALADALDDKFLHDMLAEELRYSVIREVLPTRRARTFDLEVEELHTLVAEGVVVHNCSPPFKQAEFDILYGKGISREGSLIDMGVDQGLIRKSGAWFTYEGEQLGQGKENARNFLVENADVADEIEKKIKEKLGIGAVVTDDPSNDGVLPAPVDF
# Mtb betalactam: beta-lactam sensitization of Mtb H37Rv; M. tuberculosis H37Rv growth with meropenem, percent inhibition; hits of this screen are not shown here; inhibition, % at 25 µM; 330,000 compounds, 0.27% hits;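 active means about 74% or more and at least 40 points above the plate without the antibiotic, then above 30% in a dose series; inconclusive means first-round hits that could not be retested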;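 further: growth measured after seven days incubation then overnight dye step; 0% = bacteria only wells and 100% = bacteria with antibiotic; twin plates without the antibiotic show which effects depend on it; some results filed as inactive read as strong as hits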
# Arbovirus anti repeat: further read-out of Arbovirus anti, marked with its call; inhibition, %; measured here: 10K subset replicate screen; many hits read low in the repeat;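 first of two repeat runs on a subset; 0% = infected and 100% = uninfected wells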
# An asterisk follows results filed as active; u = inconclusive; x = no result given. Only part of the results is shown; the hit share may differ from the screen's.
SMILES,YopH inh,Mtb H37Rv,Arbovirus anti,RecA splice inh,Mtb betalactam,others
O=C1C2C(c3ccccc3)C=CC(c3ccccc3)C2C(=O)N1CCO (centres undefined),-41.6,-1.1%,8.8,-1.2,4.5,Arbovirus anti repeat=2.0
O=C1OCCC1Sc1nnnn1-c1ccccc1 (centres undefined),-8.8,-3.3%,-5.6,0.4,4.1,
COc1ccc(CCNS(=O)(=O)c2c(C)[nH]c(C)c2C(=O)N2CCCCC2)cc1OC,x,x,x,0.6,9.1,
CC(=O)NC1=NN(C(C)=O)C(c2ccc(C)cc2)S1 (centres undefined),x,1.3%,-1.4,4.3,4.9,
COc1cccc(C2=NOC(C(=O)Nc3ccc4c(c3)OCO4)C2)c1 (centres undefined),x,4.8%,1.8,1.5,-0.3,
C(=N\c1nc2ccccc2n1Cc1ccccc1)/c1cccs1,-16.4,-8.5%,-6.3,0.4,4.8,Arbovirus anti repeat=4.4
Cc1ccc(C(=O)CN2C(=O)NC3(CCCCCC3)C2=O)c(C)c1,x,x,x,-2.0,-0.8,
CCc1nn(CC(=O)NCCCN2CCN(C)CC2)c(=O)c2cc3sccc3n12,x,x,x,-0.2,-4.7,
O=C(c1ccc(CS(=O)(=O)c2c(Cl)cccc2Cl)o1)N1CCCC1,4.5,-3.3%,2.9,0.9,-1.4,Arbovirus anti repeat=6.0
Cc1ccc(NC(=O)c2ccc(COc3ccc4c(c3)CCC4)cc2)c(C)c1,-30.0,-2.9%,0.8,5.5,1.3,
Cc1ccc(C(=O)N/N=C/c2nc3ccccc3n2C)cc1,-15.1,62.7%,-23.9,3.6,97.9,
CN(C)S(=O)(=O)c1ccc(C(=O)OCc2ccc([N+](=O)[O-])cc2)cc1,x,-1.5%,6.9,1.1,-0.6,
O=C(O)c1cccc(Nc2c3ccccc3nc3ccccc23)c1,x,x,x,-71.8,0.6,
Cc1cccc(C)c1NC(=O)C(=O)NCCc1c[nH]c2ccccc12,x,-1.2%,6.2,-1.7,-0.8,
Cc1ccc(CN2C(=O)C(C)Nc3ncnc(N4CCOCC4)c32)cc1 (centres undefined),x,x,x,5.8,-12.4,
Cc1ccc2nc(SCCC(=O)O)cc(C)c2c1,-36.8,0.0%,4.0,-3.1,-4.0,
CC1CC(C)CN(S(=O)(=O)c2ccc(C(=O)OCC(=O)NCCN3C(=O)CSC3=O)cc2)C1 (centres undefined),x,-6.6%,3.4,-1.9,0.2,
Cc1ccnc(NS(=O)(=O)c2ccc(NC(=O)C3CCCCC3C(=O)O)cc2)n1 (centres undefined),-32.6,-0.6%,-1.4,-1.5,-2.1,
Cc1cc(C)cc(NC(=O)c2ccc(NC(=O)C3C4CC5OC(=O)C3C5C4)cc2)c1 (centres undefined),x,2.0%,-2.2,-2.0,9.6,
CCOc1ccccc1C1CC(c2ccc(Cl)cc2)Nc2nc(N)nn21 (centres undefined),-29.5,-1.6%,0.7,7.0,-1.4,Arbovirus anti repeat=-4.0
OC(c1ccccc1)C(CN1CCOCC1)c1ccccc1 (centres undefined),x,-5.7%,x,0.8,-5.7,
Cc1cc2oc3cc(NCCC4CCCN4C)ccc3c(=O)c2cc1C (centres undefined),x,-4.7%,x,-266.4,34.3,
O=C1Nc2ccccc2C(=O)N2C[C@@H](O)C[C@H]12,x,x,x,-2.4,4.6,
Cc1occc1C(=O)Nc1cnn(CCCC(=O)O)c1,x,x,x,2.2,0.4,
C=CCNC(=O)C1COc2ccccc2O1 (centres undefined),x,-6.7%,x,-1.4,-8.8,
Cc1cc(N2CCN(C(=O)c3ccco3)CC2)n2nc(C)nc2n1,-23.8,x,17.4,-0.6,6.4,Arbovirus anti repeat=0.0
Cc1cc(Cl)n2ncc(-c3ccccc3)c2n1,x,58.1µM*,x,10.6,17.2,
O=C(CSc1nccn(-c2ccc3c(c2)OCCO3)c1=O)Nc1ccccc1,x,x,x,1.5,-0.2,
Cc1cc(NC(=O)CSc2nccn2C)no1,x,2.3%,6.9,-0.8,1.7,
O=C(CSc1nc2c(cnn2-c2ccccc2)c(=O)[nH]1)c1ccc(Cl)cc1,30.8,15.9%,27.8,-0.2,-4.6,
O=C(NCCN1CCNC1=O)C1CCC(=O)N(CCc2ccccc2)C1 (centres undefined),x,x,x,2.5,u,
CCCCCC(=O)N1CCN(S(=O)(=O)c2ccc3c(c2)OCCCO3)CC1,x,x,x,-1.0,4.7,
CCn1c2ccccc2c2cc(NC(=O)c3ccccc3-c3ccccc3C(=O)O)ccc21,x,-3.0%,x,7.7,-5.8,
O=C(Cn1nnc(-c2cccs2)n1)OC1CCCCC1,31.0,-0.9%,3.8,0.4,5.7,
Cc1cc(/C=C2/C(=O)NC(=O)N(Cc3ccco3)C2=O)c(C)n1-c1ccccc1,6.5,7.2%,5.1,0.5,6.8,
CC(C)c1ccc(S(=O)(=O)N2CCN(C(=O)CN3C(=O)NC(C)(c4ccccc4)C3=O)CC2)cc1 (centres undefined),x,x,x,-2.0,-15.1,
C[C@H](CCC(=O)O)[C@H]1CC[C@H]2[C@@H]3CC[C@@H]4C[C@H](O)CC[C@]4(C)[C@H]3C[C@H](O)[C@]12C,x,1.4%,x,0.8,0.6,
CCn1c(SCC(=O)O)nnc1-c1ccccc1OC,x,-9.9%,4.5,3.9,1.2,
CC1(OC(=O)CCc2ccccc2)C(=O)C=C2C=C(c3ccc(C#N)cc3)N(c3ccccc3)C=C2C1=O (centres undefined),x,13.6%,x,-7.7,-5.1,
CCN(CC)S(=O)(=O)c1ccc2[nH]c(=O)cc(C(=O)NCC(c3ccco3)N3CCCC3)c2c1 (centres undefined),x,x,x,-0.5,-1.0,
O=C1CC(Cc2ccccc2)C(=O)N1CCc1ccc2c(c1)OCO2 (centres undefined),9.2,-4.5%,-6.5,0.0,2.4,
Cc1cc(NC(=O)CSc2nc3c(c(=O)n2-c2ccc(Cl)cc2)SCC3)no1,-20.5,-6.7%,x,-0.4,1.0,
COCc1ccc(CN2CCCC(C(=O)Nc3ccccc3-c3ccc(OC)cc3)C2)o1 (centres undefined),x,x,x,-2.8,-4.0,
Cc1ccc(NCc2nnc(SCC(=O)NCCc3ccccc3)n2C)cc1,-41.1,-0.2%,-7.2,-1.0,x,
O=C(Nc1ncccn1)c1cccc(Cl)c1,x,x,x,13.4,-5.6,
CCn1cc(C(=O)OCC(=O)Nc2cccc(S(=O)(=O)N3CCOCC3)c2)c(=O)c2ccc(C)nc21,-15.9,1.8%,4.3,-0.4,0.9,
NNC(=O)CN1C(c2ccc(Cl)cc2)=Nc2ccc(Br)cc2C1c1ccccc1 (centres undefined),-24.7,-3.7%,-9.9,2.9,2.0,
Cc1nnc(NC(=O)c2oc3ccccc3c2C)s1,x,x,x,1.0,-8.2,

# 5 records picked at random from the list so far:
SMILES,YopH inh,Mtb H37Rv,Arbovirus anti,RecA splice inh,Mtb betalactam,others
Cc1ccc(NC(=O)c2ccc(COc3ccc4c(c3)CCC4)cc2)c(C)c1,-30.0,-2.9%,0.8,5.5,1.3,
O=C(CSc1nccn(-c2ccc3c(c2)OCCO3)c1=O)Nc1ccccc1,x,x,x,1.5,-0.2,
CCCCCC(=O)N1CCN(S(=O)(=O)c2ccc3c(c2)OCCCO3)CC1,x,x,x,-1.0,4.7,
CCn1cc(C(=O)OCC(=O)Nc2cccc(S(=O)(=O)N3CCOCC3)c2)c(=O)c2ccc(C)nc21,-15.9,1.8%,4.3,-0.4,0.9,
Cc1cc(NC(=O)CSc2nccn2C)no1,x,2.3%,6.9,-0.8,1.7,

# Of the compounds above, these contain a thiophene ring, fused or not.
SMILES,YopH inh,Mtb H37Rv,Arbovirus anti,RecA splice inh,Mtb betalactam,others
C(=N\c1nc2ccccc2n1Cc1ccccc1)/c1cccs1,-16.4,-8.5%,-6.3,0.4,4.8,Arbovirus anti repeat=4.4
CCc1nn(CC(=O)NCCCN2CCN(C)CC2)c(=O)c2cc3sccc3n12,x,x,x,-0.2,-4.7,
O=C(Cn1nnc(-c2cccs2)n1)OC1CCCCC1,31.0,-0.9%,3.8,0.4,5.7,

# Going on with the list.
SMILES,YopH inh,Mtb H37Rv,Arbovirus anti,RecA splice inh,Mtb betalactam,others
CC(C)Cn1c(=O)c2ccccc2n2c(CCC(=O)NC3CCN(Cc4ccccc4)CC3)nnc12,x,x,x,-6.0,-5.4,
COc1cccc(OCCCn2ccnc2)c1,x,x,x,0.1,3.6,
Fc1ccc(OCc2nc(-c3ccncc3)n[nH]2)cc1,x,-5.6%,-0.6,0.1,-3.7,
COc1ccccc1Nc1ccc2nonc2c1[N+](=O)[O-],x,x,x,2.1,1.2,
O=C(c1ccc(Cl)cc1[N+](=O)[O-])N1CCOCC1,x,3.9%,7.9,0.6,4.0,
O=C(Nc1ccc(S(=O)(=O)Nc2nccs2)cc1)C1CC(=O)N(c2ccccc2)C1 (centres undefined),x,-6.7%,-1.1,1.1,6.8,
O=C1NC(=S)N(c2ccc(F)cc2)C(=O)/C1=C/c1ccco1,x,x,x,17.5,6.0,
COc1ccc(N(CC(=O)NCc2ccccc2Cl)S(=O)(=O)c2c(C)noc2C)cc1,x,x,x,0.9,4.3,
N=c1ccn(Cc2ccccc2Cl)cc1,-3.2,2.1%,13.4,2.5,-14.1,
CNC(=S)NC1(C)CCS(=O)(=O)C1 (centres undefined),x,1.1%,x,-0.6,0.4,
CCOC(=O)C(=O)Nc1ccc(OC)c(Cl)c1,x,35.9%,0.4,-2.6,-3.2,
COC(=O)C(O)(NC(=O)c1ccncc1)C(F)(F)F (centres undefined),x,-10.8%,x,-1.8,-8.5,
CCCCc1nc(NCC2CCCO2)c(C#N)c2c1COC(C)(C)C2 (centres undefined),-5.8,-2.4%,0.3,3.8,4.5,
CCc1nnc(NC(=O)CN2CCN(C3CCCCC3)CC2)s1,-8.5,-6.1%,-8.3,-1.9,7.1,
CCOC(CCNC(=O)CCC(=O)Nc1ccc2nc(N3CCN(C)CC3)cc(C)c2c1)OCC,x,x,x,-1.6,1.2,
CC(=O)Nc1ccc(Sc2ncccc2C(=O)Nc2ccc(F)cc2)cn1,-18.0,2.4%,6.4,-2.3,-2.9,
COC(=O)N1N=C(c2ccccc2)CC1(O)C(F)(F)F (centres undefined),-38.8,2.2%,5.2,-0.2,1.6,
Cn1c(CNC(=O)Nc2cccc(Cl)c2)nnc1SCc1ccccc1,-29.4,-11.4%,6.7,1.4,-1.6,
CCC(=O)Nc1cccc(NC(=O)c2cccnc2)c1,-28.6,8.5%,7.1,-2.3,-7.3,
CS(=O)c1ccccc1COC(=O)Nc1ccc(Cl)cc1 (centres undefined),12.1,7.0%,-25.3,-2.6,-6.4,
COc1cc2[nH]c(=O)n(-c3cccc(Cl)c3)c(=O)c2cc1OC,9.5,-0.8%,-1.1,0.3,1.1,
O=C(Nc1ccc(Oc2ccccc2)nc1)C1CCN(Cc2ccccc2)CC1,x,x,x,0.6,-6.1,
CCOC(=O)c1cnc(-c2ccc(C(F)(F)F)cn2)[nH]c1=O,x,13.7%,x,-1.3,76.1,
NC(=O)CN1C(=O)C(O)(CC(=O)/C=C\C=C\c2ccccc2)c2ccccc21 (centres undefined),-0.8,-5.8%,2.0,-6.3,91.6,
CC(=O)c1ccccc1OC(=O)c1ccc(-c2ccccc2)cc1,x,x,x,1.2,33.5,
COc1cc2c(cc1OC)-c1cc(Nc3ccccc3)nc(=O)n1CC2,x,-8.6%,x,14.1,-0.2,
C=CCC1=C/C(=C\c2c(N)n3nc(CC(=O)N4CCOCC4)sc3nc2=O)C=C(OC)C1=O,x,x,x,8.0,1.9,
Cc1ccccc1OCCn1cc(C(=O)C(=O)N2CCOCC2)c2ccccc21,x,5.5%,1.9,0.0,-3.6,
COc1ccc(-c2cc(C(=O)Nc3cc(C)nn3-c3ccccc3)no2)cc1OC,x,6.7%,-12.5,2.5,-4.3,
CCc1ccccc1NC(=O)Cn1nc(C)n2cccc2c1=O,x,x,x,1.7,-4.5,
COc1cccc(C(=O)Nc2c(C(N)=O)oc3ccccc23)c1,8.5,0.5%,-2.2,1.2,-1.9,
CCOc1cc(-c2ccc(N)c(OCC)c2)ccc1N,-15.8,1.4%,-6.8,-1.1,44.0,
CN(C)c1ccc(/C=C/c2ccc3ccccc3[n+]2C)cc1,8.0,8.7%,-23.3,-0.2,64.9,
O=C(NNC(=O)c1ccc(SCC2CCCO2)c([N+](=O)[O-])c1)c1ccc(F)cc1 (centres undefined),5.2,0.4%,-1.7,1.8,-13.2,
Cc1ccc(-c2noc(CCC(=O)Nc3ccc4c(c3)OCO4)n2)cc1,-17.3,67.5%,-10.0,-2.8,80.5,
O=C(Nc1ccncc1)c1ccc(Cl)c(S(=O)(=O)N2CCc3ccccc32)c1,x,x,x,13.8,69.3,
O=C(NC1CCCCC1)c1cccnc1Sc1ccccc1,x,x,x,2.4,-0.2,
